# Screens: PubChem, several laboratories
# ALR H2O2 inh: inhibitors of human ALR sulfhydryl oxidase, primary screen, biochemical, H2O2 detection, HRP-luminol luminescence, single point; AID 485317, 2010; hit rate 3.8% among 290,000; FAD-linked sulfhydryl oxidase ALR (Homo sapiens), P55789; inhibition, % (no concentration beside the values); purified ALR, DTT oxidation;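 active = mean and each replicate at 75% or more; inconclusive = only one of the two met; inactive = neither met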;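 note: stock transfer was 7.5 nL into about 7.5 µL; 0% = neutral wells and 100% = wells with inactivated enzyme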
# B2AR ag: beta2AR agonists driving receptor internalization, primary screen, cell-based, FAP fluorogen, flow cytometry. hit rate 0.43% among 340,000. Am2.2-beta2AR cells; reference of the scale not given here. response, % (no concentration beside the values);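 active = response above a set limit, near 3 SD of response in nonfluorescent compounds, cut at about 42% in these data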;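 note: stock transfer was 100 nL into about 11 µL; a reference agonist was the positive control; negative values mostly stem from fluorescent compounds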
# Target sequence (P07550 whole entry, looked up): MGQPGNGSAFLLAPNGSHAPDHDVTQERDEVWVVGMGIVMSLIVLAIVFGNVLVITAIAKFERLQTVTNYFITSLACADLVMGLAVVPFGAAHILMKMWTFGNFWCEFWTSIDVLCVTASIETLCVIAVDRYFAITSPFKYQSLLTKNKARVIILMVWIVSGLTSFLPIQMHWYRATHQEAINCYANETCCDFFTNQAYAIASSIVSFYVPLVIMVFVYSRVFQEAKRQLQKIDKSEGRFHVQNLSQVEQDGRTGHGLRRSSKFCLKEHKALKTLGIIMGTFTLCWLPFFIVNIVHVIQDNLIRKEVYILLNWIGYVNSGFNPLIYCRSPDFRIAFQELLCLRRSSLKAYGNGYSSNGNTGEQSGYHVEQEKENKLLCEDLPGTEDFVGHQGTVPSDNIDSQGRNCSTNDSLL
# HNF4A DNA FP: change in binding of human HNF4A to DNA, primary screen, biochemical, fluorescence polarization, FITC-DNA; Hepatocyte nuclear factor 4-alpha (Homo sapiens), P41235; 1 h; activity change, % at 10 µM; hit rate 0.3% among 360,000; AID 1224865, 2016; in the data active = activity change above about 30%, passing the limit was not always enough;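 note: controls were the assay level and a saturating level of protein; the project sought stronger binding though the title names inhibitors; some compounds called inactive have numbers as strong as hits; positive values seem to mean higher polarization but the record does not say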
# Target sequence (P41235 whole entry, looked up): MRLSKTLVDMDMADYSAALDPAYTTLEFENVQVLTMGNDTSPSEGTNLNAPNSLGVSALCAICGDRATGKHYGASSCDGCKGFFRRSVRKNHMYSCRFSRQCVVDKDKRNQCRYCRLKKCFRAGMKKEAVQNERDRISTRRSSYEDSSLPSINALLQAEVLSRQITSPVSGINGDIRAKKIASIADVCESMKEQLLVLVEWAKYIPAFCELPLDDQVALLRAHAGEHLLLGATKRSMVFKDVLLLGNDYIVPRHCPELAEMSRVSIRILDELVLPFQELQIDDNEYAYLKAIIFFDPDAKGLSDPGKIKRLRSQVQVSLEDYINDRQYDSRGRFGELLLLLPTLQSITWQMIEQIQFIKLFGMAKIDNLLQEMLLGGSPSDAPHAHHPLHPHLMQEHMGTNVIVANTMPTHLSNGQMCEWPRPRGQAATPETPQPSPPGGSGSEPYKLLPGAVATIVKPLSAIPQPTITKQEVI
# FGF22 binding: binders of human FGF22 protein, primary screen, FGF22 synaptogenesis inhibitor project, biophysical, thermal shift, single point; Fibroblast growth factor 22 (Homo sapiens), Q9HCT0; recombinant FGF22 thermal shift, SYPRO orange fluorescence; percent of sucrose octasulfate shift, DMSO zero; calls only at 9.99 µM; hit rate 1.5% among 340,000;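 active = melting point raised past a set limit in the mean and every replicate; inconclusive = no clear call; three in four hits are not shown here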
# Target sequence (Q9HCT0 whole entry, looked up): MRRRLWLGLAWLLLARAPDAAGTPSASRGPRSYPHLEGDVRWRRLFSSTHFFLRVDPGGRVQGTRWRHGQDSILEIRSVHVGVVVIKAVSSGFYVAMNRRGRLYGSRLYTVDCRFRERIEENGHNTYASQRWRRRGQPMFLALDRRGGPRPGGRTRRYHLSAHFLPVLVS
# UCH37 DUB inh: inhibitors of human UCH37 deubiquitinase, primary screen, biochemical, Ub-AMC cleavage, fluorescence | purified proteasome/UCH37 | inhibition, % (concentration not given with the values) | hit rate 0.33% among 330,000;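 active = mean of two replicates above 20%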;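 note: 0% = compound-free wells with enzyme and 100% = wells lacking proteasome; stock transfer was 100 nL into about 20 µL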
#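 Material: Human UCH37 enzyme supplied as purified proteasome complex | Schedule: 30 min compound-proteasome preincubation then 25 min substrate reaction, room temperature | Detection: AMC fluorescence from Ub-AMC cleavage, excitation 355 nm, emission 460 nm | Benchmarks: Wells without proteasome as full block, compound-free enzyme plus substrate as uninhibited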
# Ecoli rRNA inh: reduced GFP signal of wild-type E. coli, primary screen, bacterial rRNA inhibitor project, GFP/RFP fluorescence, OD600, single point. E. coli WT GFP vs humanized-ribosome RFP mutants, 24 h; stronger effect = lower value; DMSO median 0, no signal -100. hit rate 1.6% among 350,000. GFP signal change (wild-type ribosome), % (test concentration not listed). AID 720706, 2013;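 active = significant combined selectivity score with lowered wild-type GFP, culture density cut under 30%, mutant RFP and density less affected; inactive = any of these conditions unmet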; note: one replicate is shown; some compounds called inactive have numbers as strong as hits
# Ecoli growth: E. coli growth inhibition, primary screen, OD600 | OD600 absorbance (no concentration beside the values) | hit rate 0.21% among 330,000 | Escherichia coli growth, 23 h; stronger effect = lower value;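 active = OD600 absorbance below the run mean of sample wells minus 3.6 SD, in any replicate, cut at about 0.56 in these data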;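 note: stock transfer was 300 nL into about 60 µL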
# Ecoli rRNA inh OD600: recorded beside Ecoli rRNA inh, whose call it bears; OD600 change, %; measured here: OD600 growth;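 optical density of the mix in the first replicate; 0 = DMSO median and -100 = no signal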
# Ecoli rRNA inh RFP: further read-out of Ecoli rRNA inh, marked with its call; RFP signal change, %; measured here: RFP humanized mutant strains;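 first replicate; 0 = DMSO median and -100 = no signal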
# * = called active by the depositor; i = inactive; ? = inconclusive; . = not tested or not shown. Only part of the results is shown; count on the stated rates, not on these rows.
SMILES,ALR H2O2 inh,B2AR ag,HNF4A DNA FP,FGF22 binding,UCH37 DUB inh,Ecoli rRNA inh,Ecoli rRNA inh OD600,Ecoli rRNA inh RFP,Ecoli growth
COc1ccc(CNC(=O)COC(=O)c2cc(C)oc2C)cc1,.,.,-1.3,i,.,3,17,2.4,.
C#Cc1ccc([C@@H]2C=C(C(=O)NC3CC3)O[C@H](OCC)[C@H]2CCCO)cc1,-14,-9,1.2,i,-0.9,4,14,1.7,.
O=C(O)c1ccccc1C(=O)Nc1nc(-c2ccc3ccccc3c2)cs1,69,0,2.3,i,2.1,-26,-54,-6.2,0.72
Cc1ncc([N+](=O)[O-])n1CC(=O)NC1CCCCC1,-3,-3,-2.8,.,0.9,.,.,.,0.63
O=S(=O)(Nc1ccc(-n2cnnn2)cc1)c1cccc(F)c1,.,-2,3.9,i,3.4,8,12,0.3,0.71
Cc1c(N(C)C)c(=O)n(-c2ccccc2)n1C,1,1,3.5,i,-1.0,6,2,2.1,0.68
CC1CCCN(C(=O)CSCC(=O)Nc2nc(-c3cccs3)cs2)C1 (stereo unspecified),6,15,-2.3,i,5.9,2,-42,1.2,0.74
Cc1ccc(S(=O)(=O)N2CCOCC2)cc1NC(=O)COC(=O)CSc1ccc(Br)cc1C,60,0,0.6,.,5.4,.,.,.,0.73
CCN1CCCC1CNC(=O)c1cc(S(=O)(=O)N(C)C)ccc1Cl (stereo unspecified),-7,-14,-2.5,i,-0.2,.,.,.,0.64
O=C(NCc1cccnc1)C1CC(=O)N(c2ccc(F)cc2)C1 (stereo unspecified),-1,4,0.1,.,-1.4,5,5,-4.4,0.75
Oc1[nH]c2ccc(Br)cc2c1N=NC(=S)N1CCOCC1,99*,12,-5.9,.,11,-32,-50,-16,0.64
Nc1nnc(SCC(=O)N2CCN(Cc3ccccc3)CC2)s1,-6,-1,2.2,.,0.5,.,.,.,0.67
NS(=O)(=O)c1ccc(CCNC(=O)CCCC2=NS(=O)(=O)c3ccccc3N2)cc1,-12,-5,0.6,.,-0.2,.,.,.,0.71
Cc1ccc(-c2nc(NCc3cccnc3)c3ccccc3n2)cc1,3,-14,-1.9,.,-2.9,.,.,.,0.66
COc1cc(/C=C2\SC(=O)NC2=O)ccc1OCC(=O)N1CCOCC1,-26,-1,3.1,i,11,-1,-1,-3.0,0.69
CCC(C)NS(=O)(=O)c1ccc(NC(=O)CNCc2cccs2)cc1 (stereo unspecified),.,3,1.6,i,.,-2,-2,1.1,.
Fc1ccc(-c2nn3c(C4COc5ccccc5O4)nnc3s2)cc1 (stereo unspecified),-6,-8,4.3,.,1.0,.,.,.,0.71
COc1ccc(CC(=O)N2CCOCC2)cc1,3,1,-1.0,.,1.4,.,.,.,0.77
Cc1ccc(C(=O)N/C(=C\c2cccnc2)c2nc3ccccc3[nH]2)cc1,16,-6,0.5,.,-8.9,.,.,.,0.67
CCN(CC)S(=O)(=O)c1ccc(N2CCOCC2)c(NC(=O)C2CCCO2)c1 (stereo unspecified),.,6,0.2,i,3.9,2,-6,-4.6,0.72
Cc1ccc(N/N=C/c2c(O)cc(C)oc2=O)cc1,99*,-1,-0.5,.,.,.,.,.,.
CSc1sc(C(=O)N2CCc3ccccc32)cc1S(=O)(=O)C(C)C,-12,-4,2.2,i,-55,6,13,0.7,0.72
O=C(Nc1ccc(-c2nc3cc(NC(=O)c4cccs4)ccc3o2)cc1)c1cccs1,-5,2,11,.,-300,7,15,1.6,0.74
COc1ccc(Br)c(-c2nnc(CS(=O)(=O)c3ccccc3)o2)c1,-3,-9,-4.3,i,1.1,-5,-24,0.0,0.63
COc1ccc(NC(=O)CCc2nc(-c3ccc(C)cc3)no2)cc1Cl,-3,2,-2.6,.,1.7,.,.,.,0.71
CCOC(=O)C1CCN(C2=NC(=O)/C(=C/c3ccccc3OC)S2)CC1,-4,10,-1.7,i,3.8,-24*,-17*,-10*,0.71
COc1cccc(NC(=O)CN(C)C(=O)c2cc3c(s2)CCCC3)c1,-6,0,0.9,i,5.2,3,-12,-9.1,0.68
CCc1cc(=O)oc2cc(C)cc(OCC(=O)NCC3CCC(C(=O)O)CC3)c12 (stereo unspecified),.,0,-1.1,i,-100,.,.,.,0.74
COc1ccccc1-c1oc2ccccc2c1C#CC1(N)CCCCC1,-4,22,3.3,i,.,-31,-52,-4.6,.
CCc1cc(=O)[nH]c(SCC(=O)N2CCC(Cc3ccccc3)CC2)n1,-3,-7,2.9,i,2.4,4,-1,-1.8,0.7
N#CC12CCCCC1CC1CCCCC1(C#N)N2N (stereo unspecified),5,-11,4.9,i,7.3,3,8,-3.9,0.66
C=CCNC(=O)CSc1nnc(-c2ccccc2Cl)n1-c1c(C)n(C)n(-c2ccccc2)c1=O,-2,13,2.3,i,4.0,9,5,-0.9,0.73
COc1ccc(S(=O)(=O)N2CC(O)CC2C(=O)Nc2cccnc2)cc1 (stereo unspecified),-8,2,-4.7,i,3.7,-1,-3,4.6,0.72
Cc1onc(-c2c(F)cccc2Cl)c1C(=O)NCCc1ccncc1,-7,-8,1.9,i,1.2,2,5,-0.7,0.69
Cc1cnc(C)c(N2CCC(C(=O)NC(C)c3cccs3)CC2)n1 (stereo unspecified),-6,-11,-1.4,.,4.0,.,.,.,0.71
CCc1c(O)nc(SCC(=O)Nc2ccccc2)n(-c2ccccc2)c1=O,99*,1,2.8,i,0.6,20,4,1.4,0.71

# 4 records drawn at random from those above:
SMILES,ALR H2O2 inh,B2AR ag,HNF4A DNA FP,FGF22 binding,UCH37 DUB inh,Ecoli rRNA inh,Ecoli rRNA inh OD600,Ecoli rRNA inh RFP,Ecoli growth
CCc1cc(=O)oc2cc(C)cc(OCC(=O)NCC3CCC(C(=O)O)CC3)c12 (stereo unspecified),.,0,-1.1,i,-100,.,.,.,0.74
C=CCNC(=O)CSc1nnc(-c2ccccc2Cl)n1-c1c(C)n(C)n(-c2ccccc2)c1=O,-2,13,2.3,i,4.0,9,5,-0.9,0.73
Cc1cnc(C)c(N2CCC(C(=O)NC(C)c3cccs3)CC2)n1 (stereo unspecified),-6,-11,-1.4,.,4.0,.,.,.,0.71
CCc1cc(=O)[nH]c(SCC(=O)N2CCC(Cc3ccccc3)CC2)n1,-3,-7,2.9,i,2.4,4,-1,-1.8,0.7

# Continued.
SMILES,ALR H2O2 inh,B2AR ag,HNF4A DNA FP,FGF22 binding,UCH37 DUB inh,Ecoli rRNA inh,Ecoli rRNA inh OD600,Ecoli rRNA inh RFP,Ecoli growth
Cc1nccn1CC(=O)O,-7,.,.,.,0.3,.,.,.,0.69
CC(C)(C)N(Cc1cc2ccccc2[nH]c1=O)C(=O)C1CCCCC1,.,2,1.0,.,1.4,.,.,.,0.71
CCn1c2ccccc2c2cc(NC(=O)COC(=O)c3ccccc3F)ccc21,.,8,-0.1,i,-1.0,6,-9,-0.4,0.64
C=CCn1c(SCC(=O)OCC)nc2cc(C(=O)NCc3ccco3)ccc2c1=O,-10,5,3.8,.,-2.1,.,.,.,0.72
CCCN(CCC)C(=O)c1c(NC(=O)CC)sc2c1CCCCC2,1,1,1.2,.,1.9,.,.,.,0.74
NC(=O)C1(c2ccccc2)CCC(=O)N1c1ccccc1 (stereo unspecified),-4,3,-2.4,i,2.4,5,-2,-1.5,0.65
O=C(Nc1cccc(C(F)(F)F)c1)c1cccnc1N1CCN(CCO)CC1,-3,-3,0.8,.,0.4,.,.,.,0.67
CCOC(=O)C1=C(N)Oc2c(oc(CO)cc2=O)C1c1ccccc1 (stereo unspecified),13,-2,0.3,i,2.8,-1,4,1.2,0.7
O=S(=O)(c1cccs1)N1CCCc2ccccc21,.,-6,-3.0,.,1.4,.,.,.,0.67
O=C(Nc1ccccc1)Oc1ccc[nH]c1=O,18,-6,2.5,i,4.5,12,4,1.1,0.69
O=C(CCCCCN1C(=O)c2cccc3cccc(c23)C1=O)NC1CCS(=O)(=O)C1 (stereo unspecified),.,5,5.0,i,-89,9,0,-3.8,0.69
Cc1nc2c(sc(=S)n2Cc2ccco2)c(=O)n1CC(=O)Nc1ccccc1Cl,0,-9,8.5,i,5.4,5,5,4.0,0.76
O=C(Nc1ccc2nc3n(c(=O)c2c1)CCCC3)c1ccccc1F,-2,0,-4.8,i,1.9,6,-14,-2.4,0.67
CCC(=O)Nn1c(C)nnc1C,4,-8,3.0,.,1.8,.,.,.,0.73
Cc1ccc(S(=O)(=O)N2CCOc3ccccc32)c(C)c1NS(C)(=O)=O,-11,3,-1.4,i,5.0,-3,0,1.6,0.69
CSc1ccc(C2=CC(=O)C[C@H](c3ccc(F)cc3)C2)cc1,-2,-10,-1.3,i,-2.0,-7,-5,-2.2,.
Cc1cc(C)cc(NC(=O)CSc2nnc(CNC(=O)c3cccs3)o2)c1,?,3,2.2,.,1.3,.,.,.,0.73
O=C(c1ccc(Cl)cc1[N+](=O)[O-])N1CCOCC1,-11,-5,-3.2,i,2.0,7,7,-0.8,0.7
CC(C)(C)[C@H]1C=C(C(N)=O)O[C@@H](OCc2ccc(CO)cc2)C1,54,-4,-3.8,i,1.3,-2,-6,-1.1,.
CCN(CC)c1ccc(NC(=O)CSc2nc3nc(C)cc(C)c3c(=O)[nH]2)cc1,.,11,1.5,i,4.4,1,2,-1.1,0.68
COC(OC)c1ccc(C#N)c(SCc2ccc(C)cc2)n1,-2,-7,0.8,i,1.6,-29*,-15*,-8.6*,0.67
CC1Cc2c([nH]c3ccccc23)C(=O)N1 (stereo unspecified),-1,2,0.2,i,-13,11,9,1.7,0.63
Cc1cccc(C)c1NC(=O)CNC(=O)C(C)NC(C)c1ccccc1Br (stereo unspecified),0,2,2.8,i,2.2,.,.,.,0.72
CC1(C)CC(=O)c2sc(NC(=O)Cc3cccs3)nc2C1,.,-2,-2.7,.,3.0,.,.,.,0.72
Cc1ccc(OC(=S)Nc2ccc(O)cc2)cc1,99*,0,0.5,.,0.8,.,.,.,0.75
COC(C)c1oc2c(C)c3oc(=O)cc(C)c3cc2c1C (stereo unspecified),5,3,-3.3,i,-75,-4,-14,-3.2,0.68
CC(=O)c1cccc(NC(=O)/C=C/c2ccc(S(=O)(=O)N3CCOCC3)cc2)c1,-2,13,0.7,i,5.1,.,.,.,0.71
O=C(Nc1ccccc1)Nc1ccncc1,-13,-4,1.3,i,3.7,3,-7,-1.6,0.7
NC(=O)C1CCN(c2ncc(C(F)(F)F)cc2Cl)CC1,.,0,2.3,i,4.5,9,14,-1.0,0.7
CN(Cc1ccccc1)/C(=N/O)c1cccc(Cl)c1,37,6,-0.3,i,.,-16,-14,0.6,.
CCCN(CCC)CCCNC(=O)c1ccc(CS(=O)(=O)c2c(Cl)cccc2Cl)o1,.,0,-3.3,i,6.2,9,4,3.6,0.66
COc1cccc2cc(C(=O)N(C)C3CCN(C)CC3)c(=O)oc12,-7,3,0.8,.,-1.6,.,.,.,0.67
CCCN1C2=NCCN2c2cc(C)c(C)cc21,.,-3,-0.7,.,1.7,.,.,.,0.7
